Beta cell apopt: blocks beta cell apoptosis; INS-1E cytokine-induced death, ATP luminescence, 48 h; percent of positive-control rescue, neutral wells zero; protection from apoptosis, % (test concentration not listed); 0.8% of 300,000 active;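 active = all replicates at 75% or more, or half of them and the mean; inconclusive = half reach 75% but not the mean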;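 note: 0% = cytokine-treated negative control wells and 100% = positive control rescue; higher means more ATP so stronger rescue from cytokine killing; wells of about 40 µL received 100 nL stock; the first replicate is given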
ALR H2O2 inh: human ALR oxidase inhibition via reduced H2O2; 3.8% of 290,000 active; P55789; inhibition, % (test concentration not listed); AID 485317; purified ALR, DTT oxidation, H2O2 HRP-luminol luminescence;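 active = mean and each replicate at 75% or more; inconclusive = only one of the two met; inactive = neither met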;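 note: stock transfer was 7.5 nL into about 7.5 µL; 0% = neutral wells and 100% = wells with inactivated enzyme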
Target sequence (P55789 whole entry, looked up): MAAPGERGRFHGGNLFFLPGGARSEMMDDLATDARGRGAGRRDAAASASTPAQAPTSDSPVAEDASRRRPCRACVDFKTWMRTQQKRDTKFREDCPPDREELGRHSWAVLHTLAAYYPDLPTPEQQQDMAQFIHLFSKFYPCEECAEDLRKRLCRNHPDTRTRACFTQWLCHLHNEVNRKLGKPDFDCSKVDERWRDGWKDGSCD
A1 inh: inhibitors of the anti-apoptotic protein A1, read as caspase activation; AID 2462; 0.066% of 330,000 active; MEF A1-2A-BIM cells, Caspase-Glo 3/7 luminescence, 3 h; percent of clofoctol response, vehicle zero; caspase activation, % (test concentration not listed);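 active = over half of replicate activation scores above 10%, or exactly half above 10 with the replicate mean above 10; inconclusive = replicate mean below 10 yet half the replicates above 10; inactive = over half of replicates below 10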;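 note: wells of about 30 µL received 50 nL stock; many hits fall short of the cut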
rRNA inh HTS: selective bacterial rRNA inhibition in E. coli; GFP signal change (wild-type ribosome), % (test concentration not listed); E. coli WT GFP vs humanized-ribosome RFP mutants, fluorescence, 24 h; active compounds read low; DMSO median 0, no signal -100; 1.6% of 350,000 active;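 active = significant combined selectivity score with lowered wild-type GFP, culture density cut under 30%, mutant RFP and density less affected; inactive = any of these conditions unmet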; note: one replicate is shown; some compounds called inactive have numbers as strong as hits
LANA-H2A inh: blocks KSHV LANA binding to histone H2A/H2B; AID 2629; inhibition, % (no concentration beside the values); 0.6% of 320,000 active; Q9QR71; cell-free LANA-H2A/H2B peptide, fluorescence polarization; in the data active = inhibition mostly above about 10%, no sharp cut-off; inactive = mostly below about 6.7%;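 note: stock transfer was 7.5 nL into about 10 µL; 0% = median of vehicle wells and 100% = median of positive control wells; one replicate is shown; the record names a cut of 25% in any replicate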
B2AR ag: agonists of human beta-2 adrenergic receptor inducing internalization; Am2.2-beta2AR cells, FAP receptor internalization, flow cytometry; reference of the scale not given here; response, % (concentration not given with the values); 0.43% of 340,000 active;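 active = response above a set limit, near 3 SD of response in nonfluorescent compounds, cut at about 42% in these data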;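 note: stock transfer was 100 nL into about 11 µL; a reference agonist was the positive control; negative values mostly stem from fluorescent compounds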
Target sequence (P07550 whole entry, looked up): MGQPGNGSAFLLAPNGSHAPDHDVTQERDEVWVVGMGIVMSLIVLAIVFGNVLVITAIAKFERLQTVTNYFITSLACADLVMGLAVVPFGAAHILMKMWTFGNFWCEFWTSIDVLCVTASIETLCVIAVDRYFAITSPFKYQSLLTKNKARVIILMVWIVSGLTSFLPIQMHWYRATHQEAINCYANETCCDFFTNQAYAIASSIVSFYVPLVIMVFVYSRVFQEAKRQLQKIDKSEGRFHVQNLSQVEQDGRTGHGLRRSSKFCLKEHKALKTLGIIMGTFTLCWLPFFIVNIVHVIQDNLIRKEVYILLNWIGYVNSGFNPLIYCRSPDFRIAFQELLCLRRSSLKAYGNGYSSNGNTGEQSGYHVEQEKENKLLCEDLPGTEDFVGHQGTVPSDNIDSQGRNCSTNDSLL
T cruzi repl: T. cruzi replication inhibition; T. cruzi beta-gal in NIH3T3, luminescence, 90 h; inhibition, % (no concentration beside the values); 1.4% of 300,000 active; AID 1885;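 active = mean inhibition across valid replicates above about 55%, limit read from the data; inconclusive = mean below that limit but half or more replicates reach it; inactive = mean below it, under half of replicates reach it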;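 note: signal also drops with host cell toxicity which is not excluded here; 0% = plate median of DMSO wells and 100% = zero luminescence signal; higher percent means less beta-gal luminescence so fewer parasites; stock transfer was 50 nL into about 50 µL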
Calb FLC: C. albicans growth modulation with fluconazole. C. albicans CaCi-2 (fluconazole-resistant clinical isolate) + fluconazole, Alamar Blue growth, 48 h. AID 1979. growth inhibition, % (no concentration beside the values). 0.57% of 300,000 active;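 active = most replicates above 75%; inconclusive = exactly half above 75%; inactive = most below 75%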;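 note: all wells also contain fluconazole at 8 µg/ml as a sub-toxic cotreatment; 0% = median of DMSO wells and 100% = median of geldanamycin control wells; wells of about 8 µL received 7.5 nL stock; the first replicate is given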
rRNA inh HTS OD600: second read-out of rRNA inh HTS, no call of its own (marks repeat the call); OD600 change, %; measured here: OD600 growth;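 optical density of the mix in the first replicate; 0 = DMSO median and -100 = no signal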
rRNA inh HTS RFP: recorded beside rRNA inh HTS, whose call it bears; RFP signal change, %; measured here: RFP humanized mutant strains;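 first replicate; 0 = DMSO median and -100 = no signal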
Active calls of the source: *; ? = inconclusive; · = not tested or not shown. A portion of the library, so the mix of outcomes need not match the whole.

Order of results: Beta cell apopt	ALR H2O2 inh	A1 inh	rRNA inh HTS	rRNA inh HTS OD600	rRNA inh HTS RFP	LANA-H2A inh	B2AR ag	T cruzi repl	Calb FLC
1: COc1cc2ncnc(NCc3cccc(Cl)c3)c2cc1OC
→ -5	27	0.2	-60	-82	-21	3.1	-28	34	31
2: COC(=O)CCC(=O)NNC(=O)C1CC1(c1ccccc1)c1ccccc1 (centres undefined)
→ ·	8	0.6	·	·	·	0.1	0	-5	-2
3: COc1cc(C(=O)Nc2ccncc2)cc(OC)c1OC
→ -3	-4	0.2	1	-3	-3.4	5.0	-3	-11	27
4: COc1ccc(-c2nnn(Cc3nn[nH]n3)n2)cc1OC
→ 0	-9	0.2	·	·	·	-1.1	7	-36	12
5: CCc1cccc(OCCn2nc(C(=O)O)c3ccccc3c2=O)c1
→ 0	-1	0.2	-15	15	-3.1	-0.7	20	-7	1
6: Nc1nonc1-c1noc(N2CCCCC2)n1
→ -2	-1	-1.0	·	·	·	0.1	-5	-8	-9
7: Cc1ccc(S(=O)(=O)N2CCCC(C(=O)Nc3ccc(C(=O)O)cc3)C2)cc1Cl (centres undefined)
→ ·	3	0.9	13	11	2.8	3.4	5	-11	24
8: CCN(CC)C(=O)CSc1nc2sc3c(c2c(=O)n1CCOC)CCC3
→ ·	-2	-0.4	-1	-1	0.3	1.0	0	-12	-3
9: N/C(Cc1ccc(Cl)c(Cl)c1)=N\OC(=O)c1ccc(Br)o1
→ -8	-3	1.0	5	0	0.9	0.0	5	2	5
10: COCCNC(=O)CN(Cc1ccccc1)S(=O)(=O)c1ccc2nc(C)sc2c1
→ -5	4	-0.5	3	-2	-0.1	-0.6	-7	-9	1
11: COc1cccc(NC(=O)C2CCN(C(=O)[C@@H]3Cc4ccccc4CN3)CC2)c1
→ -3	-11	0.3	20	0	-2.3	0.6	-3	-7	-5
12: Cc1cc(C)cc(NC(=O)C2CCCN2/C=C/C(=O)C(F)(F)F)c1 (centres undefined)
→ -5	-9	0.2	·	·	·	1.6	1	-15	17
13: CCC12CN3CCN(CC(C3)/C1=N\NC(=O)Nc1ccccc1)C2
→ -1	·	0.1	·	·	·	·	-5	5	14
14: O=C(CCn1nc(-c2ccc(Cl)cc2)ccc1=O)NCc1cccnc1
→ -4	2	-0.3	·	·	·	1.3	-14	13	21
15: CCOC(=O)c1c(C)nc2c(c1-c1cc(OC)ccc1OC)C(=O)c1ccccc1-2
→ 5	0	0.1	0	-1	-1.2	0.6	6	7	15
16: CCN(CC)S(=O)(=O)c1ccc2c(c1)N(CC(=O)NCCc1ccc(S(N)(=O)=O)cc1)C(=O)CO2
→ 3	-11	-1.0	-2	-4	0.6	-0.1	-6	-13	5
17: Cc1nc2cc(N3CCCCC3)c(NC(=O)c3ccncc3)cc2c(=O)n1Cc1ccc(Cl)cc1
→ 45	-10	2.0	·	·	·	-0.1	·	22	1
18: c1ccc2c(c1)COC(CNC1CCCCC1)OC2
→ -7	-7	?	21	11	0.5	3.0	4	-3	-29
19: CC1CCCCC1NC(=O)CSCC(=O)O (centres undefined)
→ -9	1	0.5	·	·	·	-4.1	8	-1	11
20: CCOC(=O)c1c(CN(C)C)n(-c2ccccc2)c2cc(Br)c(O)cc12
→ 0	28	-0.6	-25	-43	-0.5	0.6	0	13	-10

An excerpt from above in order of number of heavy atoms, smallest number first.
Order of results: Beta cell apopt	ALR H2O2 inh	A1 inh	rRNA inh HTS	rRNA inh HTS OD600	rRNA inh HTS RFP	LANA-H2A inh	B2AR ag	T cruzi repl	Calb FLC
19: CC1CCCCC1NC(=O)CSCC(=O)O (centres undefined)
→ -9	1	0.5	·	·	·	-4.1	8	-1	11
18: c1ccc2c(c1)COC(CNC1CCCCC1)OC2
→ -7	-7	?	21	11	0.5	3.0	4	-3	-29
4: COc1ccc(-c2nnn(Cc3nn[nH]n3)n2)cc1OC
→ 0	-9	0.2	·	·	·	-1.1	7	-36	12
13: CCC12CN3CCN(CC(C3)/C1=N\NC(=O)Nc1ccccc1)C2
→ -1	·	0.1	·	·	·	·	-5	5	14
20: CCOC(=O)c1c(CN(C)C)n(-c2ccccc2)c2cc(Br)c(O)cc12
→ 0	28	-0.6	-25	-43	-0.5	0.6	0	13	-10
7: Cc1ccc(S(=O)(=O)N2CCCC(C(=O)Nc3ccc(C(=O)O)cc3)C2)cc1Cl (centres undefined)
→ ·	3	0.9	13	11	2.8	3.4	5	-11	24

Other compounds:
Order of results: Beta cell apopt	ALR H2O2 inh	A1 inh	rRNA inh HTS	rRNA inh HTS OD600	rRNA inh HTS RFP	LANA-H2A inh	B2AR ag	T cruzi repl	Calb FLC
21: CCC(=O)c1ccc(OCC(=O)Nc2ccc(N3CCOCC3)cc2N2CCOCC2)cc1
→ 1	-13	-0.4	0	5	0.8	-1.3	-11	11	-4
22: CCOC(=O)c1cc(-c2ccc(OC)cc2OC)nn1-c1ccc(C(=O)O)cc1
→ -4	68	0.5	·	·	·	2.8	1	-1	35
23: O=C1CCC(C(=O)NCc2ccc3c(c2)OCO3)N1 (centres undefined)
→ -9	-2	0.3	7	11	0.3	-0.1	1	-21	3
24: COc1ccc(C(=O)C(Sc2nnc(C)c(=O)[nH]2)c2ccc(OC)cc2)cc1 (centres undefined)
→ -3	35	-0.7	-18	-11	-2.7	-1.7	0	-6	-7
25: O=c1c2ccccc2oc2nc(C3CCCCC3)n(Cc3ccco3)c(=O)c12
→ -2	·	0.5	·	·	·	-2.6	-21	33	-25
26: Cc1ccc(C(=O)CSc2nnc(-c3ccccc3N)n2C)cc1C
→ 1	9	-0.9	-15	-5	-6.5	2.0	-2	6	4
27: O=C(CCNC(=O)C1CCN(S(=O)(=O)c2ccccc2)CC1)NCc1ccc(Cl)cc1Cl
→ ·	-2	0.0	-3	10	-0.8	1.6	-5	37	-4
28: Oc1ccccc1-c1cc(-c2ccc3c(c2)OCCO3)n[nH]1
→ 14	43	-7.2	·	·	·	-2.0	8	0	31
29: Cc1cc(OC(C)C(=O)NCC2CCCO2)cc(C)c1Cl (centres undefined)
→ 2	-3	0.1	2	2	-1.1	1.3	-2	4	0
30: O=C(Nc1ccc(Cl)cn1)Nc1ccccc1F
→ ·	·	-4.1	·	·	·	-3.7	-7	-7	-7
31: COc1ccccc1CCNC(=O)c1cccc(S(=O)(=O)NCc2ccccc2)c1
→ -2	-1	-0.3	-9	-26	-3.5	-2.1	10	8	-21
32: COc1ccc(CNC(=O)c2ccc(NC(=O)CC3SC(N4CCCC4)=NC3=O)cc2)cc1 (centres undefined)
→ 2	3	-0.6	·	·	·	-0.4	-5	-13	21
33: CN(CCOc1ccc(Cl)cc1)C(=O)CN1C(=O)NC2(CCCCC2)C1=O
→ -2	-3	2.4	-6	-12	-0.9	-3.2	2	-7	-10
34: C=C1CCC[C@]2(C)C[C@H]3OC(=O)C(CNC(C)(CO)CO)[C@H]3CC12 (some centres undefined)
→ -39	-3	1.4	12	3	2.0	7.7	-2	-34	-14
35: O=S(=O)(c1ccc(F)cc1)N1CCN(C(=S)NC2CC2)CC1
→ 5	-5	-0.8	6	6	-1.4	6.0	0	·	·
36: CCOC(=O)c1c(C)[nH]c(C(=O)COC(=O)CNC(=O)c2ccccc2Cl)c1C
→ 0	1	-0.4	·	·	·	0.6	-2	3	-5
37: Cc1ccc(C)c(NC(=O)c2sc(Cl)nc2C)c1
→ -10	-2	0.7	4	6	-3.5	-2.8	-5	-9	-17
38: Cc1cc(C)c(NC(=O)CNC(=O)COC(=O)C2CCN(c3ccc(C(F)(F)F)cn3)CC2)c(C)c1
→ 2	1	-0.3	17	10	5.8	-1.9	-1	-3	-21
39: CCc1cccc(CC)c1NC(=O)COC(=O)c1ccc2c(c1)S(=O)(=O)c1ccccc1C2=O
→ -15	-2	0.1	·	·	·	-4.1	-5	2	13
40: CC(=O)CC(C)(C)n1nnc(-c2ccccc2)n1
→ -6	-3	-0.3	·	·	·	-2.1	6	1	3
41: CCOc1ccccc1NC(=O)CCNS(=O)(=O)c1ccc(NC(C)=O)cc1
→ -3	-2	-1.0	3	15	-1.8	1.9	-7	-5	-3
42: CCc1c(C)nc(N2CCN(c3ccccc3F)CC2)[nH]c1=O
→ -5	-5	0.2	12	9	0.9	-0.9	10	-16	3
43: COc1ccccc1C(=O)NC(=O)COC(=O)Cn1cnc2c1c(=O)n(C)c(=O)n2C
→ ·	0	0.5	4	10	-2.4	5.1	7	-13	6
44: COCCCNC(=S)N/N=C/c1ccc(O)cc1
→ -1	99*	0.7	-1	-2	-1.4	-5.9	2	-19	-3
45: C#CCNC(=O)C1=C[C@@H](c2csc3ccccc23)C[C@@H](OCc2ccc(CO)cc2)O1
→ 5	-3	0.2	-22	-22	15	-0.9	0	29	-3
46: COc1ccc(CCNC(=O)CNCCc2ccc(F)cc2)cc1
→ -2	·	-1.0	-8	-4	3.6	-2.2	-8	39	-3
47: O=C(Nc1cc(F)ccc1F)C1CCN(S(=O)(=O)c2cccc3nonc23)CC1
→ 2	-4	0.3	1	4	-2.6	3.4	-10	-9	-1
48: CCCCNc1c(-c2ccc(SC(C)CC)cc2)nc2cnccn12 (centres undefined)
→ 14	67	-0.9	·	·	·	-2.0	-31	·	·
49: CCc1ccccc1N1CN(Cc2cccnc2)CNC1=S
→ -1	-4	0.1	10	3	-0.4	-0.5	4	·	-15
50: COCCn1c(=NC(=O)CSCC(=O)N2CCOCC2)sc2cc(C)ccc21
→ 6	67	-0.4	-2	-1	-1.6	-0.2	-18	-5	-2
51: COc1ccc(S(=O)(=O)N2CCCC2CNC(=O)C(=O)NCc2ccco2)cc1 (centres undefined)
→ ·	1	-1.0	8	12	2.7	-9.3	-4	-5	13
52: CCN(CC)CCNC(=O)CS(=O)Cc1nc(-c2ccccc2Cl)oc1C (centres undefined)
→ -3	99*	0.1	·	·	·	9.4	-2	13	7
53: CCN(CC)S(=O)(=O)c1cccc2nsnc12
→ 0	-3	0.9	·	·	·	1.5	-4	-2	-7
54: O=C(NCc1ccccc1F)c1ccncc1
→ 2	·	0.6	3	9	-1.1	-0.6	6	-25	-6
55: CC1=CC2=NCC(O)CN2C=C1 (centres undefined)
→ -8	-7	-0.5	·	·	·	-1.6	-1	6	2
56: CCOC(=O)c1ccc(P(=O)(c2ccccc2)c2ccccc2)cc1
→ -3	-1	0.3	-10	0	4.6	3.4	-8	-1	-5
57: CS(=O)(=O)Nc1ccc(N2CCCCC2)c(Cl)c1
→ -6	18	1.0	·	·	·	-0.3	-1	·	27
58: COC(=O)c1ccc(C)c(NC(=O)Cn2cnc3ccccc3c2=O)c1
→ -6	-5	0.1	·	·	·	2.5	-8	-3	-15
59: C/C(=N\NC(=O)C1CCCN(S(=O)(=O)c2ccccc2)C1)c1ccncc1 (centres undefined)
→ 3	-5	0.3	·	·	·	-3.4	-3	-1	0
60: COc1ccc(C(=O)Nc2ccc(S(=O)(=O)N3CCc4ccccc43)cc2)cc1
→ 9	-4	0.5	·	·	·	5.5	6	17	7
61: Cc1ccc(C(=O)N(C)CC(=O)Nc2ccc(Cl)c(C(F)(F)F)c2)cc1S(=O)(=O)N1CCCCC1
→ 8	-5	-1.3	-5	-24	3.6	-2.6	10	·	·
